# CtBP-E1A inh = blocks the CtBP interaction with E1A; AID 651724; activity change, % (no concentration beside the values); AlphaScreen GST-E1A/His-CtBP binding, 1536-well; hits give low values; control for the full effect not named in the record; 340,000 tested, 0.49% active; in the data active means activity change below about -65%; inconclusive means about -30% to -65%; inactive means above about -30%; further: on the % scale 0 is the no-effect control and ±100 the full control effect; compound concentration not given in the record
#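 Protein mix (5X: 125 nM each GST-E1A, His-CtBP) was incubated with pinned compound 2 h at 37 deg C in dark, in 50 mM Tris pH 8.0 buffer with 300 mM NaCl. Glutathione donor and nickel acceptor beads followed; AlphaScreen signal read after 1 h.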
# Six1-Eya2 inh = inhibitors of human Six1/Eya2 interaction | AID 651725 | Q15475+O00167 | activity change, % (no concentration beside the values) | 360,000 tested, 0.56% active | AlphaScreen GST-Six1/His-Eya2 binding, biochemical; hits give low values; control for the full effect not named in the record; in the data active = activity change below about -65%; inconclusive = about -30% to -65%; inactive = above about -30%; further: on the % scale 0 is the no-effect control and ±100 the full control effect; compound concentration not given in the record
#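 AlphaScreen luminescence read after one hour at 37 °C in darkness. Pin-transferred compounds met GST-Six1 and His-Eya2 protein (5X stock 250 nM/500 nM) plus glutathione donor and Ni-chelate acceptor beads (5X, 50 ug/mL).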
# D2 PAM = positive allosteric modulators of human D2 dopamine receptor; P14416; DiscoveRx D2 beta-arrestin cells, luminescence, 90 min; 100% = 57 uM dopamine signal; potentiation, % (no concentration beside the values); 360,000 tested, 0.23% active; active = potentiation of 50% or more; inconclusive = 30% to 50%; inactive = 30% or less;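 further: compound concentration not given in the record; tested on top of an EC20 dose of dopamine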
# Target sequence (P14416 whole entry, looked up): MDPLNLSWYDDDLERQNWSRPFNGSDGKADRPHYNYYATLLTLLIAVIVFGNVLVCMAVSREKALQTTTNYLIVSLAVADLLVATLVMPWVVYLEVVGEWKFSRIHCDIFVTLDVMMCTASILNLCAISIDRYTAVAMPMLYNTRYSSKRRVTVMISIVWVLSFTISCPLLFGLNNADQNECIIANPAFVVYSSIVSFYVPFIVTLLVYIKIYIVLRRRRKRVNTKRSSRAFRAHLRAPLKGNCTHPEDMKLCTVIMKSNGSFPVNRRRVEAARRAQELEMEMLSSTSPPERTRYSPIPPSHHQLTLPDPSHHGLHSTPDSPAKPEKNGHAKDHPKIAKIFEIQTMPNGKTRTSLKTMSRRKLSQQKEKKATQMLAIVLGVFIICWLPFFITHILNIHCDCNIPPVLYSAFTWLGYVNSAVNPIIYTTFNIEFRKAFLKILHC
#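 PathHunter D2 cells, attached overnight at 37 deg C, received compound in DMSO plus dopamine at EC20 (50 nM final) for 90 min at 37 deg C. Beta-arrestin recruitment was read as luminescence after 1 h with detection reagent at ambient temperature.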
# gsp antagonist = antagonists of gsp mutant (McCune-Albright syndrome). gsp-mutant cells, cAMP HTRF, 30 min; control for the full effect not named in the record. Potency, µM (series often up to 76.9 µM), for inactives: top-dose activity change, negative = inhibition, actives largely listed as inhibitors. 340,000 tested, 0.4% active. AID 624288; active = falling curve of any shape with a large fitted effect; inconclusive = falling curve, mostly with a smaller effect; inactive = flat or rising curve; cell line not stated here;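 further: intracellular cAMP measured with PDE inhibitor Ro 20-1724 present during compound exposure; potency means the concentration at half of the fitted maximal effect; on the % scale 0 is the no-effect control and ±100 the full control effect; nearly all actives have a fitted effect of over 65% in size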
#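 G418-selected cells were plated in DMEM/10% FBS for 16-24 h at 37C, then treated with compounds plus the PDE inhibitor […] (300 uM solution added) for 30 min at 37C. Intracellular cAMP was measured by HTRF after 30 min lysis at room temperature.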
# gsp ag = agonists of gsp mutant (McCune-Albright syndrome); gsp mutant cells, cAMP HTRF, 30 min; control for the full effect not named in the record; Potency, µM (doses to about 76.9 µM), without a hit: at the highest dose activation (cAMP increase), most hits filed as activators; 340,000 tested, 0.13% active; active = well fitted activation curve with a large enough effect; inconclusive = small, poorly fitted or top-dose-only effect, or another doubt; inactive = no such curve, though single readings can be large or run the other way; cell line not stated here;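 further: phosphodiesterase inhibitor Ro 20-1724 added with compounds to block cAMP breakdown; potency means the concentration at half of the fitted maximal effect; nearly all actives have a fitted effect of over 60% in size; about a fifth of the inactives were tested at one dose only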
#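 Cells stably selected in G418 were plated at 2000/well, grown 16-24 hr, then given compounds in DMSO with the PDE inhibitor […] (300 uM solution added) for 30 min at 37C; cAMP was read by HTRF.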
# D2 ag = human D2 receptor agonism in beta-arrestin assay. P14416. DiscoveRx PathHunter D2 beta-arrestin, luminescence, 90 min; 100% = 57 uM dopamine signal. activation, % (no concentration beside the values). 360,000 tested, 0.084% active. AID 624465; in the data active = activation above about 40%; inconclusive = about 15% to 40%; inactive = below about 15%; further: compound concentration not given in the record; the text of the record calls up to 30% inactive
#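 Agonist mode: compounds alone added to overnight-plated D2 PathHunter cells for 90 min at 37 C, with 57 uM final dopamine (EC100) defining full response. Beta-arrestin recruitment detected by chemiluminescent reagent, read after 1 h at ambient temperature.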
# * = called active by the depositor; ? = inconclusive; nt = not tested or not shown; [ ] = dose if it differs, or a comment.
CtBP-E1A inh	Six1-Eya2 inh	D2 PAM	gsp antagonist	gsp ag	D2 ag	structure
6.0	5.7	3.5	3.3%	-37.9%[inhibitor]	0.9	NS(=O)(=O)c1ccc(CCNC(=O)NC23CC4CC(CC(C4)C2)C3)cc1
7.3	-17.7	-34.9	4.6%	6.5%	-1.8	CCOC(=O)C(=O)/C(=C\N(C)C)c1onc(-c2ccccc2)c1C(=O)OC
0.0	-2.6	-7.2	17.5%	-0.9%[15.4 µM]	-9.2	O=C(c1cccc([N+](=O)[O-])c1)N1CCN(Cc2ccc3c(c2)OCO3)CC1
-15.2	-2.1	-8.7	19.4%	11.4%[15.4 µM]	-3.8	Cn1cnc2c1c(=O)n(Cc1cccc(Cl)c1)c(=O)n2C
-9.6	-0.5	-12.9	nt	-0.2%[15.4 µM]	0.9	O=C(Nc1nccs1)c1cn(-c2ccccc2)nc1-c1ccncc1
-1.9	-0.6	-3.5	-8.2%	11.5%	2.9	Cc1ccc(N2C(=O)c3ccccc3C2Nc2cccnc2)nc1 (stereo not given)
-6.3	-17.9	-8.0	-17.6%	-2.4%[15.4 µM]	-1.7	COc1ccc(C)cc1N(C(=O)Cn1nnc(-c2ccc(C)o2)n1)C(C(=O)NC1CCCC1)c1ccncc1 (stereo not given)
-0.5	-16.3	-9.2	-13.0%	1.4%[15.4 µM]	0.8	CCN1CCc2c(sc(NC(=O)c3ccc(S(=O)(=O)N(CC)c4ccccc4)cc3)c2C(N)=O)C1
3.0	3.3	-1.0	-1.7%	4.6%	1.9	O=C1C2C3C=CC(O3)C2C(=O)N1N=Cc1cccc2ccccc12 (stereo not given)
-22.9	-6.6	6.6	nt	-1.2%[15.4 µM]	5.6	O=C1CS/C(=N/N=C/c2cccs2)N1
nt	5.5	-4.9	-2.7%	-20.6%	-0.6	Cc1ccc(NC(=O)CSC(C)C(=O)OC(C)C(=O)NC2CCCCC2C)cc1 (stereo not given)
-4.5	-0.8	3.3	4.7%	-14.6%	-2.3	CCc1ccccc1NC(=O)c1cc(-c2cccc(O)c2)on1
0.3	12.1	-2.4	6.3%	5.3%	-1.6	CCCc1nc2sc(C(=O)OCC)c(N)c2c2c1COC(C)(C)C2
nt	0.0	0.5	2.4%	-47.2%	2.3	COc1ccc(NC(=O)Cc2cccc3ccccc23)cc1
-7.6	-6.5	4.7	4.9%	6.4%	5.6	COc1cc(/C=N/N=C2/NC(=O)C(Cc3ccccc3)S2)ccc1O (stereo not given)
-7.0	-2.8	-8.4	5.8%	-30.9%	-4.8	COc1cnc(-c2ccccc2)nc1Oc1ccc(Cl)cc1C
nt	3.3	-6.0	8.4%	-3.0%	0.5	CCC(C(=O)Nc1cccnc1)n1c(=O)[nH]c2ccccc2c1=O (stereo not given)
nt	0.9	10.1	-9.3%	?	1.7	Cc1cccc(-n2ncc(Cl)c(Cl)c2=O)c1
3.2	8.2	-15.7	-11.8%	14.4%[15.4 µM]	-19.9	O=C(CCNS(=O)(=O)c1ccccc1)OCC(=O)c1ccc(Br)cc1
3.1	-1.6	-1.3	4.6%	4.4%	-2.0	COc1ccccc1OCCSc1nc2ccccc2n1CC(O)CO (stereo not given)
1.5	8.1	-2.2	-0.8%	19.3%[15.4 µM]	-1.2	Cn1c(SCC(=O)Nc2ccccc2F)nnc1C1CCCCC1
5.3	-16.8	-3.6	7.5%	1.7%	1.8	COC(=O)c1ccc(CSc2nc3c(c(=O)n2-c2ccc(F)cc2)SCC3)o1
nt	-3.5	-0.9	9.0%	3.9%	-1.5	NC(=O)C[n+]1ccc(/C=N/O)cc1
3.9	5.1	-23.9	6.8%	-44.3%[inhibitor]	-3.4	N=c1sccn1CC(=O)NCCc1ccc(Cl)cc1Cl

# As a working copy, part of the list above:
CtBP-E1A inh	Six1-Eya2 inh	D2 PAM	gsp antagonist	gsp ag	D2 ag	structure
3.1	-1.6	-1.3	4.6%	4.4%	-2.0	COc1ccccc1OCCSc1nc2ccccc2n1CC(O)CO (stereo not given)
1.5	8.1	-2.2	-0.8%	19.3%[15.4 µM]	-1.2	Cn1c(SCC(=O)Nc2ccccc2F)nnc1C1CCCCC1
5.3	-16.8	-3.6	7.5%	1.7%	1.8	COC(=O)c1ccc(CSc2nc3c(c(=O)n2-c2ccc(F)cc2)SCC3)o1

# (next part)
CtBP-E1A inh	Six1-Eya2 inh	D2 PAM	gsp antagonist	gsp ag	D2 ag	structure
-0.9	-13.6	-7.2	-14.7%	3.2%	-2.3	Clc1ccccc1CSc1cnnc2ccccc12
-22.4	-21.6	-15.1	nt	nt	-6.8	CC(C)(C)n1nnnc1C(c1ccccc1OC(F)(F)F)N1CCN(C/C=C/c2ccccc2)CC1 (stereo not given)
1.7	-6.4	3.7	nt	nt	2.2	CCOC(=O)N(C)c1c(CC)nc2c(OCc3ccc(Cl)cc3)cccn12
-6.4	3.3	-4.7	3.7%	-14.6%	-2.4	CC12CCC(C(=O)NCCN3CCCCC3)(CC1=O)C2(C)C (stereo not given)
2.0	3.9	-10.1	nt	nt	-3.8	Cc1cccc(C)c1NC(=O)C(c1ccccc1)N(C)CCc1ccccc1 (stereo not given)
6.4	6.8	3.2	-3.2%	nt	-3.3	Cc1cccc(C(=O)N2[C@@H](C(C)C)COc3cc(Br)ccc3S2(=O)=O)c1
-3.6	3.7	-19.5	-4.0%	-9.5%	-1.1	COC(=O)c1cccnc1NC(=S)NNC(=O)c1ccccc1
-0.7	9.0	-11.4	3.0%[15.4 µM]	3.2%	-3.3	CSc1ccc2[nH]c(=O)cc(C)c2c1
5.1	-1.4	-1.4	-3.3%	?	-3.6	Cc1ccccc1OCC(=O)Nc1ccc(NC(=O)c2ccco2)cc1
4.4	2.4	-13.4	13.7%	-33.7%[inhibitor]	-6.3	CCCCn1c(N)c(N(CC)C(=O)c2cc(S(=O)(=O)N3CCCCCC3)ccc2OC)c(=O)[nH]c1=O
6.8	-3.5	-6.4	-5.3%	5.7%	-2.7	C[C@H](NC(=O)c1ccco1)C(=O)NNC(=O)c1ccc(F)cc1
-1.3	-0.7	-11.5	-6.1%	-0.5%	-2.5	Cc1ccc(N(Cc2cc3ccc(C)cc3[nH]c2=O)S(=O)(=O)c2ccccc2)cc1
-0.8	-7.3	-18.9	?	2.9%	-5.2	COc1ccc(NC(=O)CN(C)C(=O)c2cc(-c3ccc(Cl)cc3)nc3ccccc23)cc1
-26.1	-11.0	-9.9	-8.1%	10.1%[15.4 µM]	-6.8	COc1cc(/C=C2\SC(=S)N(C(C(=O)O)c3ccccc3)C2=O)cc(OC)c1OC (stereo not given)
-2.5	-7.4	-4.9	-2.4%	0.5%	-2.7	COc1ccc(CNC(=O)CN(Cc2ccc(OC)cc2)C(=O)CCC(=O)Nc2nccs2)cc1
2.6	5.1	1.1	7.8%	-28.2%	-30.3	CCN1C(=O)c2ccccc2Sc2ccc(C(=O)NCCN3CCOCC3)cc21
-2.4	5.8	-2.0	3.6%	-5.9%	0.4	O=C(COC(=O)C1CC2CCCC(C1)C2=O)NNC(=O)c1ccccc1F (stereo not given)
4.6	9.6	3.3	14.1%	-22.0%	-1.7	Cc1ccc(SCCNC(=O)C(C)C)cc1
-17.2	4.5	-4.0	1.7%	?	0.3	NS(=O)(=O)c1ccc(CCNC(=O)CSc2ncnc3ccccc23)cc1
-4.9	13.5	-3.8	nt	?	-4.2	CS(=O)(=O)Nc1ccc2c(c1)[C@H]1C[C@H](CC(=O)NCc3cccc(F)c3)O[C@@H](CO)[C@H]1O2
6.2	1.4	-21.7	11.2%	-24.9%	0.0	COc1ccc(Cl)cc1C(=O)NNC(=O)CN1C(=O)C2CC=CCC2C1=O (stereo not given)
-5.4	-12.6	-5.9	-7.4%	8.3%[15.4 µM]	-4.0	CCc1c(O)nc(SCC(=O)Nc2nc3ccccc3s2)n(-c2ccccc2)c1=O
-11.8	-6.5	13.4	?	20.3%	-3.6	COc1ccc(/C=N/NC(=O)c2nnn(-c3nonc3N)c2CN(C)c2ccccc2)cc1
1.8	-10.2	-16.0	-21.9%	27.9%	-0.4	CCOCCCNc1ncnc2c1[nH]c1ccccc12
5.3	5.3	4.4	-0.7%[15.4 µM]	4.5%	-4.3	CC(=O)c1c(C)nn(C(C)CC(=O)O)c1C (stereo not given)
-0.9	-0.1	1.2	-8.7%	-23.0%[15.4 µM]	-1.0	Cc1onc(-c2ccccc2Cl)c1C(=O)Nc1ccccc1O
-1.2	-8.1	7.2	-17.0%	-6.4%	-1.5	COc1ccc(OCCNC(=O)/C=C/c2ccc([N+](=O)[O-])cc2)cc1
2.8	7.4	-8.5	9.6%	16.3%	-3.2	NC(=O)C[C@@H]1NC(=O)CNC(=O)c2cc([N+](=O)[O-])cc(I)c2NCCC(C(N)=O)NC1=O (stereo not given in full)
2.1	11.8	-26.5	-10.8%	-12.7%	-4.9	COc1cccc(/C=C/C(=O)c2ccc(NS(=O)(=O)c3ccc(C)cc3)cc2)c1
nt	-1.8	-13.0	14.0%	-60.2%[15.4 µM]	-9.6	COc1cc(C(=O)NNC(=S)Nc2ccc(S(N)(=O)=O)cc2)cc(OC)c1OC
5.1	2.7	-7.4	-6.9%	14.3%	-5.1	c1ccc2c(-c3csc(-c4ccncc4)n3)c[nH]c2c1
-1.5	17.9	-7.7	11.2%	-3.4%[15.4 µM]	-3.5	Cc1cccc(NC(=S)NCCc2ccc(S(N)(=O)=O)cc2)c1C
32.0	4.2	-15.2	-0.6%	9.0%	-2.2	Cc1ccc(O)c(CNn2cnnc2)c1
-5.6	-9.4	-4.1	13.4%	15.6%	-1.2	Cc1cccc(Nc2nc(N)nc(CN3CCN(C)CC3)n2)c1
-23.6	-13.5	-5.7	1.5%	35.3%	-2.2	Cc1cc(NC(=O)CSc2n[nH]c(-c3ccccc3Br)n2)no1
2.8	-0.4	0.8	-12.0%	33.4%	10.7	O=C(Nc1ccc(OC(F)F)cc1)c1cc(S(=O)(=O)N2CCCCC2)ccc1N1CCOCC1
6.1	-2.7	0.0	-5.2%	7.7%	3.3	Cc1noc(C)c1COc1cccc(C(=O)OC(C)C(=O)Nc2c(C)n(C)n(-c3ccccc3)c2=O)c1 (stereo not given)
-8.7	12.0	-4.3	12.5%	?	-2.2	Cn1c(=O)c2c(nc(Cl)n2CC(=O)NC2(C#N)CCCCC2)n(C)c1=O
0.8	1.4	-1.5	-12.5%	1.4%	-1.1	CN(C(=O)COC(=O)c1ccccc1OCc1ccc(F)cc1)C1CCS(=O)(=O)C1 (stereo not given)
-14.0	-14.6	-7.0	-6.1%	-1.0%	-0.6	CCOC(=O)c1c(C)[nH]c(C)c1C(=O)COc1ccc(NC(=O)c2ccco2)cc1
5.4	2.2	-1.7	11.6%	3.9%	1.8	COc1cc(C2NC(=O)NC(c3ccccc3)=C2C(C)=O)cc([N+](=O)[O-])c1O (stereo not given)
